N370S GC mod – qHTS Assay for Inhibitors and Activators of N370S glucocerebrosidase as a Potential Chaperone Treatment of Gaucher Disease; Lysosomal acid glucosylceramidase (Homo sapiens), P04062; N370S GC spleen homogenate, 4MU-glucoside fluorescence; Potency, µM (doses to about 59.4 µM), without a hit: top-dose activity change, negative = inhibition, actives largely listed as inhibitors; 330,000 compounds, 0.092% hits;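 further: 0% = full enzyme activity and -100% = no enzyme basal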
DT40 TDP1 CPT – qHTS for Inhibitors of human tyrosyl-DNA phosphodiesterase 1 (TDP1): qHTS in cells in presence of CPT | chicken DT40 Tdp1-/-;hTDP1 cells + 20 nM CPT, ATP luminescence, 48 h | Potency, µM (series often up to 46.2 µM), without a hit: top-dose activity change, negative = growth inhibition, actives largely listed as inhibitors | 420,000 compounds, 12% hits | AID 686979, 2013; further: nearly all actives have a fitted effect of over 55% in size
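Chicken DT40 Tdp1-/- cells complemented with human TDP1, 400 cells/well, exposed to compounds plus 20 nM camptothecin for at least 48 h at 37 C; viability read as ATP content by CellTiter-Glo luminescence.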
An asterisk follows results filed as active; ? = inconclusive; · = not tested or not shown; & = joins results of further samples. The call rests on the fitted dose curve; in most records, active means well fitted curve in the direction sought with a large enough effect; inconclusive means small, poorly fitted or top-dose-only effect, or another doubt; inactive means no such curve, though single readings can be large; an effect the other way counts as inactive or inconclusive. Unless noted, on the % scale 0 is the no-effect control and ±100 the full control effect; potency means the concentration at half of the fitted maximal effect. Some of the compounds tested, and most or all hits are left out here.

SMILES | N370S GC mod | DT40 TDP1 CPT
CCOc1ccc(-n2c(SCC(N)=O)nc3c(c2=O)SCC3)cc1 | -8.5% | -7.9%
O=C1CCC(=O)N1c1ccc(S(=O)(=O)Nc2ccc(Br)cc2)cc1 | 2.0% | -6.0%
CC1=Nn2c(nnc2C2CCCCC2)SC1 | -0.8% | 4.6%
O=C(COc1ccc(Cl)cc1)NCc1n[nH]c(=O)c2ccccc12 | 0.9% | -17.3%
CCOc1ccc(C(C)NC(=O)c2cccnc2OCC)cc1OCC (stereo not given) | -10.2% | -9.7%
CC(=O)c1ccc(N2CCN(CC(O)COCc3ccco3)CC2)cc1 (stereo not given) | -10.8% | -16.4%
CCOc1ccc(NC(=O)NCc2cccn2Cc2ccccc2)cc1 | · | -9.7%
Cc1ccc(S(=O)(=O)N2CCOCC2)cc1NC(=O)COC(=O)CNC(=O)c1ccc(C(C)(C)C)cc1 | 6.6% | -23.7%
COC(=O)c1cc(S(=O)(=O)N2c3ccccc3CC2C)cn1C (stereo not given) | 3.0% | 2.9%
O=C(CN1CCN(Cc2ccccc2)CC1)N/N=C/c1ccco1 | -1.6% | -8.2%
Fc1cc(F)cc(NC(=S)NN2CCOCC2)c1 | -18.1% | -0.8%
O=C(NNc1cc(N2CCOCC2)nc(N2CCOCC2)n1)C12CC3CC(CC(C3)C1)C2 | 11.2% | 7.6%
CC(NC(=O)C(=O)N1CCOCC1)C(c1cccs1)N1CCN(c2ccc(F)cc2)CC1 (stereo not given) | -18.1% | -12.7%
Cn1c(=O)c2c(nc(OCc3ccccc3)n2C)n(C)c1=O | -3.8% | -28.6%
CN(C)CCCn1c(N)c(S(=O)(=O)c2ccccc2)c2nc3ccccc3nc21 | 25.3% | 18.4µM*
O=C(Nc1ccccc1)Nc1ccc2snnc2c1 | -23.4% | ?
COc1cccc2[nH]c(C(=O)NC(C)c3ccccc3)cc12 (stereo not given) | -5.5% | -4.3%
CCOC(=O)c1cn[nH]c1N | 9.5% | -12.6%
CCOc1ccc2nc(NC(=O)c3cnc(C)cn3)sc2c1 | 2.6% | 14.6µM*
CCOc1ccc(OCCC(=O)NNC(=O)c2cc(C)oc2C)cc1 | 3.1% | -3.2%
CCC(=O)Nc1nc(CC(=O)Nc2ccccc2OC)cs1 | 7.1% | 0.8%
NC(=O)c1ccc(NC(=O)CNCc2ccccc2Cl)cc1 | -2.4% | -2.6%
CC(O)c1nc2ccccc2n1C(C)c1ccccc1 (stereo not given) | -4.2% | -27.5%
CCOC(=O)N1CCN(C(=O)CN(C)S(=O)(=O)c2ccc3c(c2)C(C)(C)C(=O)N3C)CC1 | 4.2% | 0.7%
COc1ccc(C(=O)N/N=c2\oc3ccccc3cc2C(=O)NCc2ccccc2)cc1 | -11.9% | 16.4µM*

More structures:
SMILES | N370S GC mod | DT40 TDP1 CPT
COc1ccc(N(CC(=O)NCCc2ccccc2)C(=O)CCC(=O)Nc2ccccn2)cc1 | -12.5% | -29.7%
COc1ccc(CCNCC(O)COc2cccc(Br)c2)cc1OC (stereo not given) | -2.2% | ?
COCCN(C(=O)CNC(=O)c1ccco1)C(C(=O)NC1CCCCC1)c1cccnc1 (stereo not given) | 1.2% | 7.1%
O=C(C(=O)N1CCN(c2ccccc2)CC1)c1cn(CC(=O)N2CCCCCC2)c2ccccc12 | -1.4% | -14.6%
O=C1C2C3CCC(O3)C2C(=O)N1c1cc(OCC(F)F)cc([N+](=O)[O-])c1 (stereo not given) | 1.7% | -9.5%
COc1cc(C(=O)NCC(=O)N/N=C/c2c(C)[nH]c3ccccc23)cc(OC)c1OC | 19.0% | ?
CCOC(=O)C1CCCN(C(=O)c2ccc(OC(C)=O)cc2)C1 (stereo not given) | -4.3% | -5.4%
O=C(Nc1ccc(Br)cn1)C1CCCN1S(=O)(=O)c1ccccc1 (stereo not given) | 12.2% | ?
C[C@@H](C(=O)NCC1CCCO1)N1C(=O)N2CCc3c([nH]c4ccccc34)[C@@]2(C)C1=O (stereo not given in full) | -6.2% | -23.1%
Clc1ccc(-c2cc(-c3ccccc3)on2)cc1 | -18.5% | -24.2%
CC(=O)OCCN(C)c1cc(SC(C)C)c2nonc2c1[N+](=O)[O-] | -2.2% | 13µM*
COc1cc(NC(=O)c2ccc(F)cc2)c(OC)cc1NC(=O)CN1CCCCC1 | -7.8% | ?
C=CCn1c(NCCOC)nc2c1c(=O)n(C)c(=O)n2C | -3.9% | -3.5%
Cc1ccc2nc(-c3ccc(NS(=O)(=O)c4ccccc4)cc3)sc2c1 | 8.0% | ?
CC1CC(C)CN(C(=O)C(Cc2ccccc2)n2cccc2)C1 (stereo not given) | 13.6% | ?
O=C(CCc1ccc(S(=O)(=O)N2CCOCC2)cc1)Nc1ccc(N2CCOCC2)cc1 | -13.7% | -7.1%
CCc1ccc(C(=O)Cn2cnc3cc([N+](=O)[O-])ccc3c2=O)cc1 | -6.1% | -22.3%
Cn1nc(C(F)(F)F)c2cc(C(=O)Nc3ccc(Cl)cc3)sc21 | 9.0% | ?
O=C(C[n+]1ccc(-c2nnc3n2CCC3)cc1)c1ccc(Cl)cc1 | -5.1% | -7.0%
CCN1C(=O)/C(=C/N(C)c2ccccc2)OC1=S | -14.4% | ?
Cc1cc(C)cc(NC(=O)N2CCCN(c3c(Cl)cncc3Cl)CC2)c1 | 2.6% | -5.3%
COc1ccc2[nH]cc(CCNC(=O)Nc3ccccc3)c2c1 | -11.3% | -7.6%&-20.2%
CCSc1nc(-c2ccccc2)c(C#N)c(=O)[nH]1 | 6.7% | 4.5%
CCOC(=O)Cn1nc(-c2ccc(F)cc2)cc(Cc2ccccc2)c1=O | 10.7% | -23.3%
C/C(CC(=O)Nc1ccc(Cl)c(Cl)c1)=N\NC(=O)Cc1ccccc1 | -22.6% | -4.3%

Part of the list above in order of formula weight, falling.
SMILES | N370S GC mod | DT40 TDP1 CPT
COc1ccc(CCNCC(O)COc2cccc(Br)c2)cc1OC (stereo not given) | -2.2% | ?
CCOC(=O)Cn1nc(-c2ccc(F)cc2)cc(Cc2ccccc2)c1=O | 10.7% | -23.3%
Clc1ccc(-c2cc(-c3ccccc3)on2)cc1 | -18.5% | -24.2%

(more compounds)
SMILES | N370S GC mod | DT40 TDP1 CPT
O=C(CCNC(=O)c1ccc(Br)cc1)NCc1ccncc1 | -1.2% | 4.3%
O=c1c([N+](=O)[O-])c(NCCN2CCCCCC2)c2ccccc2n1-c1ccccc1 | -10.3% | -19.0%
COC(=O)C1CCN(C(=O)C2CCN(C(=O)[C@@H](NS(=O)(=O)c3ccc(C)cc3)C(C)C)CC2)CC1 | -6.9% | 7.4%
CC(=O)c1ccc(N(C(=O)c2ccco2)C(C(=O)NC2CCCC2)c2ccc(N3CCOCC3)cc2)cc1 (stereo not given) | 23.0% | 21.3%
CN(C(=O)CSc1n[nH]c(-c2cccs2)n1)C1CCS(=O)(=O)C1 (stereo not given) | -14.6% | -7.6%
N#CC(=C1CCCC1)c1nc(-c2ccccc2)cs1 | 16.8% | -13.6%
Cn1cccc1/C=C1\SC(=Nc2ccccc2)NC1=O | -3.5% | 2.91µM*
CCOC(=O)Cn1c(=O)cc(C)c2cccc(C)c21 | 5.6% | -1.8%
Cc1ccc(NC(=O)CSc2n[nH]c(-c3ccco3)n2)c(C)c1 | 1.7% | -4.7%
Cc1ccc(S(=O)(=O)NCCc2nnc3ccc(NCCCOC(C)C)nn23)cc1 | -12.0% | -10.5%
O=c1cc(CN2CCOCC2)nc(C2CC2)[nH]1 | -2.7% | -5.8%
COc1ccccc1OC(=O)c1ccc(S(=O)(=O)N(C)C)cc1 | 19.7% | -8.4%
COc1cccc(C2c3[nH]c4ccccc4c3C[C@H]3C(=O)N(c4ccccc4C(=O)N4CCCC4C(=O)O)C(=O)N23)c1 (stereo not given in full) | -4.2% | 2.7%
Cc1ccc(S(=O)(=O)N2CCN(C(=O)Cc3sc(C)nc3-c3ccc(F)cc3)CC2)c(C)c1 | -24.0% | 18.4µM*
Cc1cc(C(=O)COC(=O)c2ccc[nH]c2=O)c(C)n1-c1ccc(Br)cc1 | -18.1% | -23.0%
N#Cc1nc(-c2ccco2)oc1N1CCCC1 | -2.1% | 5.1%
CCOC(=O)N1CCC(N2C(=O)c3ccccc3C2Nc2ccc3c(C)cc(=O)oc3c2)CC1 (stereo not given) | 8.7% | -16.4%
COc1cccc(N=Cc2c(O)c3ccccc3oc2=O)c1 | -23.5% | 23.4%
COc1ccccc1N1CCN(C(=O)c2ccc([N+](=O)[O-])s2)CC1 | -8.5% | ?
O=C(c1ccc(NS(=O)(=O)c2cccs2)cc1)N1CCCCC1 | 7.5% | -16.1%
Cc1sc2nc(CSCC(=O)Nc3c(F)cccc3F)[nH]c(=O)c2c1C | -6.2% | 11.6µM*
COc1ccc(S(N)(=O)=O)cc1C(=O)OCCCOc1ccc(F)cc1 | -4.7% | 1.1%
Cc1nn(-c2ccccc2)c(Cl)c1/C=C1\C(=O)N(C)C(=S)N1C | -2.7% | ?
O=S(=O)(Nc1ccc(-c2nc3ccccc3o2)cc1)c1ccccc1 | -3.1% | -4.4%
NCCC1CCCC(CCN)N1 (stereo not given) | -2.7%&-0.2% | -6.6%

(cont.)
SMILES | N370S GC mod | DT40 TDP1 CPT
O=C(COC(=O)c1cc(F)cc(F)c1)Nc1cccnc1Cl | 5.3% | -27.7%
CCCCN1CNC(=S)N(Cc2ccccc2)C1 | 9.1% | -0.9%
O=C(Cn1nnc(-c2ccc([N+](=O)[O-])cc2)n1)NNC(=O)c1ccccc1 | -15.6% | -6.2%
COc1ccc(CCNC(=O)C(=O)NCC2OCCN2S(=O)(=O)c2ccc(F)cc2)cc1OC (stereo not given) | 8.3% | -25.0%
CC(=O)N=c1c(C#N)cc2c(=O)n3cccc(C)c3nc2n1CCCOC(C)C | ? | 1.2%
COCCNC(=O)C(OC(=O)CC1Sc2ccccc2NC1=O)c1ccccc1 (stereo not given) | 4.3% | 0.2%
Cc1cccc(C)c1OCCN1CCOCC1 | -0.4% | 0.5%
CC1CC(NS(=O)(=O)c2cccs2)CC(C)(C)C1 (stereo not given) | 26.4% | -28.4%
CC(C)(C)NC(=S)NCc1ccc2c(c1)OCO2 | 2.4% | -14.4%
Cc1ccc(-n2c(SCc3nc4ccccc4[nH]3)nnc2-c2ccncc2)cc1 | 7.8% | -2.3%
COc1ccc(Cl)cc1C(=O)NCc1cnn(C)c1C | 1.2% | -22.6%
Cc1ccc(-c2nnn(CC(=O)N(CC(=O)NC3CCCCC3)c3ccc(F)c(Cl)c3)n2)o1 | 2.3% | 13µM*
COc1ccc(CCC(=O)NNC(=S)NCc2ccc(F)cc2)cc1 | -1.8% | -29.7%
COC(=O)C1ON2OC(C(=O)OC)C(C(=O)OC)C2C1CC(C)=O (stereo not given) | -8.0% | -25.5%
CCOc1ccc(-c2c(C(=O)N/N=C(\C)c3ccncc3)nnn2-c2nonc2N)cc1 | -13.2% | 10.0%
Cc1no[n+]([O-])c1COc1ccc(/C=N/n2nnnc2N)cc1 | -9.9% | ?
O=C(OCC(=O)N1CCCC1)c1cccc(Br)c1 | 3.2% | 0.0%
N=c1c2c(ncn1CCN1CCOCC1)Oc1cc(O)ccc1C2c1ccccc1 (stereo not given) | -4.4% | 1.2%

Arranged by molecular weight (falling): part of the list above.
SMILES | N370S GC mod | DT40 TDP1 CPT
COc1ccc(CCNC(=O)C(=O)NCC2OCCN2S(=O)(=O)c2ccc(F)cc2)cc1OC (stereo not given) | 8.3% | -25.0%
Cc1ccc(-c2nnn(CC(=O)N(CC(=O)NC3CCCCC3)c3ccc(F)c(Cl)c3)n2)o1 | 2.3% | 13µM*
CCOc1ccc(-c2c(C(=O)N/N=C(\C)c3ccncc3)nnn2-c2nonc2N)cc1 | -13.2% | 10.0%
COCCNC(=O)C(OC(=O)CC1Sc2ccccc2NC1=O)c1ccccc1 (stereo not given) | 4.3% | 0.2%
N=c1c2c(ncn1CCN1CCOCC1)Oc1cc(O)ccc1C2c1ccccc1 (stereo not given) | -4.4% | 1.2%
Cc1sc2nc(CSCC(=O)Nc3c(F)cccc3F)[nH]c(=O)c2c1C | -6.2% | 11.6µM*
CC(=O)N=c1c(C#N)cc2c(=O)n3cccc(C)c3nc2n1CCCOC(C)C | ? | 1.2%
COc1ccc(S(N)(=O)=O)cc1C(=O)OCCCOc1ccc(F)cc1 | -4.7% | 1.1%
O=C(Cn1nnc(-c2ccc([N+](=O)[O-])cc2)n1)NNC(=O)c1ccccc1 | -15.6% | -6.2%
COc1ccc(CCC(=O)NNC(=S)NCc2ccc(F)cc2)cc1 | -1.8% | -29.7%
O=C(c1ccc(NS(=O)(=O)c2cccs2)cc1)N1CCCCC1 | 7.5% | -16.1%
COC(=O)C1ON2OC(C(=O)OC)C(C(=O)OC)C2C1CC(C)=O (stereo not given) | -8.0% | -25.5%
O=C(COC(=O)c1cc(F)cc(F)c1)Nc1cccnc1Cl | 5.3% | -27.7%
Cc1no[n+]([O-])c1COc1ccc(/C=N/n2nnnc2N)cc1 | -9.9% | ?
O=C(OCC(=O)N1CCCC1)c1cccc(Br)c1 | 3.2% | 0.0%
COc1ccc(Cl)cc1C(=O)NCc1cnn(C)c1C | 1.2% | -22.6%
CC1CC(NS(=O)(=O)c2cccs2)CC(C)(C)C1 (stereo not given) | 26.4% | -28.4%
CC(C)(C)NC(=S)NCc1ccc2c(c1)OCO2 | 2.4% | -14.4%
CCCCN1CNC(=S)N(Cc2ccccc2)C1 | 9.1% | -0.9%
Cc1cccc(C)c1OCCN1CCOCC1 | -0.4% | 0.5%
NCCC1CCCC(CCN)N1 (stereo not given) | -2.7%&-0.2% | -6.6%

Source: PubChem (National Center for Advancing Translational Sciences (NCATS))
